Source: PubChem BioAssay (several laboratories)
Arbovirus anti: blocks arbovirus infection | hit rate 0.37% among 200,000 | arbovirus infection cell-based antiviral screen | inhibition, % at 10 µM;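 active = inhibition from about 30%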;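 also: bluetongue infection of BSR cells; cell survival read as ATP light after 72 h; 0% = infected wells without compound and 100% = uninfected wells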
YopH inh: YopH (Yersinia) phosphatase inhibition | fluorescence Ex485/Em525 | inhibition, %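 (about 10 µM by stock and volumes)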 | hit rate 0.16% among 140,000 | AID 898;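 active = inhibition of 50% or more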;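 also: controls were vehicle for no effect and minimum signal wells for full effect; inactives centre near -20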
Mtb H37Rv: M. tuberculosis H37Rv growth inhibitors, H37Rv strain (AID 1626); M. tuberculosis H37Rv growth inhibition; higher % means a stronger effect; hit rate 0.95% among 220,000; one-dose inhibition, % at 10 µM; IC50 in µM for titrated hits;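 active = confirmed in a dose series; inconclusive = inhibition above 80% but not taken into the dose series; inactive = below 80% or under 30% at every dose of the series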;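 also: bacteria incubated seven days before Alamar blue readout; 0% = bacteria only wells and 100% = bacteria with antibiotic wells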
Mtb bLac sens: beta-lactam sensitization of Mtb H37Rv. M. tuberculosis H37Rv growth with meropenem, percent inhibition; hits of this screen are not shown here. inhibition, % at 25 µM. hit rate 0.27% among 330,000. AID 434955;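 active = about 74% or more and at least 40 points above the plate without the antibiotic, then above 30% in a dose series; inconclusive = first-round hits that could not be retested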;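 also: growth measured after seven days incubation then overnight dye step; 0% = bacteria only wells and 100% = bacteria with antibiotic; twin plates without the antibiotic show which effects depend on it; some results filed as inactive read as strong as hits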
RecA intein inh: blocks M. tuberculosis RecA intein splicing | P9WHJ3 | cell-free RecA intein splicing, fluorescence | inhibition, %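 (about 9 µM by stock and volumes)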 | hit rate 0.75% among 290,000; in the data active = inhibition above about 30%; inconclusive = no clear call, values can overlap the other calls;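 also: 0% = vehicle wells and 100% = reference inhibitor control wells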
Target sequence (P9WHJ3 whole entry, looked up): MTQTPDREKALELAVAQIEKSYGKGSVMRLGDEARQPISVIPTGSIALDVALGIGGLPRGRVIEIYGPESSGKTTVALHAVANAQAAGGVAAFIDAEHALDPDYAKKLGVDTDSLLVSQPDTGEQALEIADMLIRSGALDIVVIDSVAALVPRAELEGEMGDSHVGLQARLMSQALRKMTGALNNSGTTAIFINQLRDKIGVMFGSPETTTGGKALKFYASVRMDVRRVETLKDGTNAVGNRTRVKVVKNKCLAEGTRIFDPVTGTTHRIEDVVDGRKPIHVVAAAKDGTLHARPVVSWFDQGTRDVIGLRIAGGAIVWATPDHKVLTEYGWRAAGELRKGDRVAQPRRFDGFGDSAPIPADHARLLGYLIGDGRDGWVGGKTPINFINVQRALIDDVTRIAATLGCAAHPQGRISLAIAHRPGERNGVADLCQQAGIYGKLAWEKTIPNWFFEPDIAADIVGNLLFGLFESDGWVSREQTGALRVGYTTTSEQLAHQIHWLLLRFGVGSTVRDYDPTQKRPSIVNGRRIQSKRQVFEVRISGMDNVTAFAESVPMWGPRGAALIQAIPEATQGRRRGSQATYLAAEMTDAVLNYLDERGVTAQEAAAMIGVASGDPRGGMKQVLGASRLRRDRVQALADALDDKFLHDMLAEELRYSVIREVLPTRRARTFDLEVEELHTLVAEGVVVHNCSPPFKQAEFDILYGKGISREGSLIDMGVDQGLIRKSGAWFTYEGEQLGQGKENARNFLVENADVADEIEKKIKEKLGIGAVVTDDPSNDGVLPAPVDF
Arbovirus anti repeat: recorded beside Arbovirus anti, whose call it bears; inhibition, %; measured here: 10K subset replicate screen; many hits read low in the repeat;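 first of two repeat runs on a subset; 0% = infected and 100% = uninfected wells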
An asterisk follows results filed as active; ? = inconclusive; nt = no result given. An excerpt. The share of hits here may be higher or lower than overall.

SMILES	Arbovirus anti	YopH inh	Mtb H37Rv	Mtb bLac sens	RecA intein inh	others
CC1CCN(CCCNC(=O)c2cc3c(=O)n(C)c4ccccc4c3n2C)CC1	12	-22	0%	-5	-1.9	Arbovirus anti repeat=-16
O=C(CSc1nnc(Cc2ccccc2)o1)N1CCc2ccccc21	-3	31	-3%	11	0.0
CC(=O)N1CCOc2ccc(S(=O)(=O)NCCc3ccccc3)cc21	nt	nt	nt	-1	0.0
O=C(N/N=C/c1ccc(OC(=O)c2cccs2)cc1)c1ccc(F)cc1	0	-17	43%	8	1.6
O=C(c1ccccc1)N1CCC2(CC1)NCCc1[nH]cnc12	nt	nt	nt	-1	1.3
COc1ccc(N2CCN(C(=O)CCc3ccccc3OC)CC2)cc1	nt	nt	nt	6	0.3
O=C(NCCN1CCN(S(=O)(=O)c2ccccc2)CC1)C(=O)Nc1ccc(F)cc1	nt	nt	nt	4	2.9
CN(C)/C=N/S(=O)(=O)c1ccc(Cl)cc1	0	nt	2%	20	-2.9
O=C(COc1ccc(Cl)cc1Cl)N1CCN(C(=O)c2ccco2)CC1	nt	nt	nt	2	1.1
C=CCSc1nc2[nH]ncc2c(=O)[nH]1	13	nt	3%	-3	-2.2
O=C(CSc1nnc(-c2ccccn2)n1Cc1ccco1)c1ccc(Cl)cc1	11	6	-2%	-10	4.8	Arbovirus anti repeat=-6
O=C(NC1C2CC3CC(C2)CC1C3)c1ccc2c(c1)OCO2 (stereo unspecified)	nt	nt	nt	-2	1.5
O=C(Nc1nc2ccccc2s1)C1CC(=O)N(c2ccc(F)cc2)C1 (stereo unspecified)	21	-30	20%	1	1.8
O=C(NCc1cn(-c2ccccc2)nc1-c1ccccc1)c1cc([N+](=O)[O-])cc([N+](=O)[O-])c1	-10	20	0.59µM*	100	-0.7
O=C(O)CCC(=O)N1CCN(c2ccc(C(=O)c3ccc(F)cc3)cc2)CC1	-1	-23	-10%	0	-3.7
N#Cc1c(-c2ccccc2)c(-c2ccccc2)nn(CC(=O)NNC(=O)Nc2ccc(Cl)c(Cl)c2)c1=O	-40	5	22%	100	11
CCOC(=O)c1ccc(NC(=O)CSCc2ccco2)cc1	2	-6	?	99	5.4
CCCn1cc2c(c1-c1cccc(C)c1)c(=O)n(C)c(=O)n2C	8	-25	-3%	-15	1.8
CC(C)C1Cc2c(sc3[nH]c(=S)n(Cc4ccccc4)c(=O)c23)CO1 (stereo unspecified)	-19	2	nt	-7	1.5
C=CCNC(=O)CSc1nc2sc3c(c2c(=O)n1CCC)CCC3	nt	nt	nt	2	0.7

Two entries picked at random from those above, as already listed:
SMILES	Arbovirus anti	YopH inh	Mtb H37Rv	Mtb bLac sens	RecA intein inh	others
O=C(CSc1nnc(Cc2ccccc2)o1)N1CCc2ccccc21	-3	31	-3%	11	0.0
O=C(NCc1cn(-c2ccccc2)nc1-c1ccccc1)c1cc([N+](=O)[O-])cc([N+](=O)[O-])c1	-10	20	0.59µM*	100	-0.7

(further entries)
SMILES	Arbovirus anti	YopH inh	Mtb H37Rv	Mtb bLac sens	RecA intein inh	others
CCOC(=O)C1=C(C)NC(=S)N(C(C)=O)C1c1ccccc1 (stereo unspecified)	-2	-98	-3%	-3	1.0
CC1(C)SC(=S)N(c2ccccc2)C1/[N+]([O-])=C/c1cccc([N+](=O)[O-])c1 (stereo unspecified)	nt	nt	-9%	-4	-1.9
CCCCn1c(N)c(Sc2ccc(Cl)cc2)c(=O)[nH]c1=O	2	1	0%	?	-1.3
Cc1ccc(OCC(=O)Nc2ccc(F)cc2)c([N+](=O)[O-])n1	0	nt	1%	15	-5.8
CN(c1ccccc1C(=O)Nc1ccc2c(c1)OCCO2)S(C)(=O)=O	1	-19	-1%	8	-1.0
Cc1ccc(OCCCCN2CCc3ccccc3C2)c(C)c1	nt	nt	nt	-3	5.4
COCCn1c(N)c(N(Cc2ccccc2)C(=O)CSCC(=O)Nc2ccc(C)cc2)c(=O)[nH]c1=O	nt	nt	nt	-3	0.3
COc1ccc(C2=NN(C(N)=S)C(c3ccco3)C2)cc1 (stereo unspecified)	-3	nt	3%	-5	nt
CCC(=O)N/N=C(\C)CC(=O)Nc1cc(Cl)ccc1C	-2	-1	0%	-13	2.2
CCC(=O)Nc1cccc(C2=NOC3(C2)C[C@@H](C(N)=O)N(C(=O)c2ccccc2C(=O)c2ccccc2)C3)c1 (stereo partly specified)	nt	nt	-3%	-5	-0.3
COc1ccc2[nH]c(=O)c(CN(CC3CCCO3)C(=S)Nc3ccccc3)cc2c1 (stereo unspecified)	-4	nt	-4%	0	5.6
CCOC(=O)c1sc(N2N=C(C)C(N=Nc3cccc(C)c3)C2=O)nc1C (stereo unspecified)	nt	nt	57%	50	1.2
Cc1nnc(SCC(=O)O)o1	-1	nt	-12%	1	-0.8
CC(C)CC(=O)Nc1cccc(C(=O)Nc2ccccc2C(=O)O)c1	6	-13	-10%	-7	0.6
O=S(=O)(Nc1ccccn1)c1ccc(C2CCCCC2)cc1	1	2	-3%	3	-1.2
Cc1onc(-c2ccccc2)c1C(=O)OCC(=O)NCc1ccc(F)cc1	3	nt	0%	-3	-1.1
COCCCNC(=O)c1cn(C)c(=O)c2cc(OC)c(OC)cc12	5	-19	-6%	-4	nt	Arbovirus anti repeat=3
O=C(CSc1nnc(Cn2nnc3ccccc32)o1)Nc1ccc(Cl)cc1	10	-8	nt	-3	-2.3
C/C(=N\Nc1ccc2nncn2n1)c1ccccn1	nt	nt	2%	-1	-2.5
CCOC(=O)c1cc(NC(=O)CN2CCCC2)cc(C(=O)OCC)c1	nt	nt	nt	1	-1.9
Cc1ccsc1S(=O)(=O)N1CCC(CO)(CC2CCCCO2)CC1 (stereo unspecified)	-2	nt	-5%	3	-0.3
CCCCC1=CC2=CC(=O)C(C)(OC(=O)CC)C(=O)C2=CN1CCc1ccc(Br)cc1 (stereo unspecified)	nt	nt	-1%	2	-4.9
NCCC(=O)N1c2ccccc2Sc2ccccc21	nt	nt	nt	-6	0.8
CC(C)NC(=O)c1cnn2c1NC(c1cccs1)CC2C(F)(F)F (stereo unspecified)	6	11	-7%	4	3.0
COc1ccc(S(=O)(=O)N2CCC3(CC2)CC(=O)c2ccccc2O3)cc1OC	nt	nt	nt	-6	-0.1
Cc1ccc(OCC(=O)Nc2ccc(C)c(S(=O)(=O)N3CCCCC3)c2)c([N+](=O)[O-])n1	-2	-28	-2%	3	-2.1
CCCCN(CC)CCNC(=O)c1cc2cc3ccc(Cl)cc3nc2o1	nt	nt	nt	-7	0.5
O=C(Oc1ccccc1)c1ccc2c(c1)C(=O)N(Cc1ccncc1)C2=O	nt	nt	-5%	62	3.4
CCOc1cccc(C(=O)NC2CCCCC2)c1	-3	-36	2%	7	0.1
COc1ccc(C(=O)C2CCCN(C(=O)CCNC(C)=O)C2)cc1OC (stereo unspecified)	nt	nt	nt	-1	-1.7
CN(C)C=Nc1nonc1-c1ccccc1	nt	nt	-8%	-7	nt
Cc1ccc(S(=O)(=O)N2CCOCC2)cc1C(=O)NCc1cccnc1	3	-37	-8%	3	1.7
Cc1ccsc1C(=O)N(C)CC(=O)N(CC(C)C)c1c(N)n(CC(C)C)c(=O)[nH]c1=O	nt	nt	nt	-15	-1.7
CCCNS(=O)(=O)c1cccc(C(=O)NNC(=O)c2cc(C)oc2C)c1	nt	nt	nt	-9	1.7
CN1CCN(CCC(=O)N/N=C/C=C2\N(C)c3ccccc3C2(C)C)CC1	7	nt	2%	-4	-1.7
CCOC(=O)Cn1c(O)c(N=NC(=O)OC)c2ccccc21	nt	nt	-9%	0	2.9
CO/N=C\C(=N\Nc1ccc(OC)cc1)C(=O)c1ccccc1	-15	4	-9%	50	3.1
COc1ccccc1C(=O)N/C(=C\c1ccc(Br)cc1)C(=O)N1CCCC1	nt	nt	1%	-11	3.4
COc1ccc(C(=O)Nc2cccc(-c3cc4ccccc4oc3=O)c2)cc1[N+](=O)[O-]	-6	-6	-1%	0	nt
CCOc1ccc(CSC(=N)N)cc1Cl	nt	nt	1%	1	1.0
O=C(O)CN1C(c2ccccc2O)Nc2ccc(Br)cc2C1c1ccccc1 (stereo unspecified)	6	nt	-3%	nt	-1.2
COc1ccc(/C=C2\CCC(C3CCCC3)C2=O)c(OC)c1OC (stereo unspecified)	nt	nt	nt	0	0.4
CC1(c2nnc(-c3ccccc3)o2)CC(c2ccncc2)=NO1 (stereo unspecified)	nt	nt	-5%	-2	-0.9
CC1CCCCC1NC1=NCCS1 (stereo unspecified)	2	-16	-9%	9	0.4
COc1ccc(O)c(C(=O)c2cnn(-c3ccccc3)c2)c1	nt	nt	nt	27	-3.3
N/C(=N\c1nc2ccccc2o1)NC(=O)c1ccccc1NC(=O)c1ccccc1	2	10	-5%	96	nt
CSc1nnc(-c2sccc2OCc2ccccc2)n1C	-2	-28	4%	5	0.0
CCOCCCNC(=O)C1CCCN(S(=O)(=O)CC)C1 (stereo unspecified)	-2	-3	-2%	-6	-0.6
CCNC(=O)COc1ccc(C=O)cc1OC	1	-19	4%	4	-1.6
COc1ccc(NC(=O)CCC(=O)Nc2nnc(C3CCCCC3)s2)cc1	nt	nt	nt	2	-1.3
CCOC(=O)C1=C(N)Oc2cc(C)oc(=O)c2C12C(=O)N1c3c(cc(OC)cc32)C(C)=CC1(C)C (stereo unspecified)	-18	-1	-8%	0	0.4
CC(C)[C@H](NC(=O)c1ccco1)C(=O)OCC(=O)N1CCc2ccccc21	-3	0	-3%	28	0.6
CC(=O)NC(CC(=O)Nc1nc(C)cs1)c1ccccc1 (stereo unspecified)	6	nt	4%	-2	-0.8
Nc1nc(CSCCO)nc(Nc2ccccc2)n1	1	2	7%	1	0.8
O=C(CCc1nc(-c2ccc(Cl)cc2)no1)OCc1ccc(Br)cc1	nt	-19	11%	97	0.6
CNC(=S)N/N=C/c1ccc(-c2cc([N+](=O)[O-])ccc2Cl)o1	-2	nt	-2%	-1	-0.7
COc1ccccc1NC(=O)/C(C#N)=C/C=C/c1ccco1	-4	-8	0%	-2	nt
Cc1ccc(-c2nc3cccnc3s2)cc1NS(=O)(=O)c1ccc2c(c1)OCCO2	-14	-16	4%	-4	-0.8
COc1cc(/C=C/C(=O)O)cc(S(=O)(=O)Nc2ccccc2Oc2ccccc2)c1OC	nt	nt	0%	-3	-1.2
CSc1ccccc1OCc1cc(C(=O)N2CCc3[nH]cnc3C2c2ccccn2)no1 (stereo unspecified)	nt	nt	nt	-5	4.4
The listing continues.
SMILES	Arbovirus anti	YopH inh	Mtb H37Rv	Mtb bLac sens	RecA intein inh	others
COc1ccc(C)c2sc(NC(=O)C3=COCCO3)nc12	4	-48	6%	1	0.7
COCCNC(=O)c1ccc(N2CC3CC(C2)c2cccc(=O)n2C3)c(NC(=O)c2c(F)cccc2F)c1 (stereo unspecified)	nt	nt	nt	-5	4.1
O=C(OCC(=O)c1ccc[nH]1)c1ccc(Cl)nc1	nt	nt	nt	18	1.0
CCOC(=O)C1CCN(C(=O)Cc2c(C(=O)O)n(C)c3ccccc23)CC1	6	7	nt	2	-0.4
CC(C)Sc1nc(-c2cccs2)nc2c1c(=O)n(C)c(=O)n2C	-1	nt	-1%	nt	nt	Arbovirus anti repeat=-6
C=CCOC(=O)C1=C[C@H](c2ccccc2)[C@@H](CCCO)[C@H](OCC)O1	2	nt	-12%	7	-0.9
Cc1ccc(C2C3C(=O)N(c4ccc(C)cc4)C(=O)C3N3CCCN23)cc1 (stereo unspecified)	nt	nt	3%	9	-7.4
COc1cc(/C=C/c2cccc[n+]2C)ccc1OCC(=O)Nc1ccccc1C	nt	nt	nt	-11	4.7
COc1ccc2[nH]c(=O)c(CN(Cc3nnnn3CCc3ccccc3)CC3CCCO3)cc2c1 (stereo unspecified)	5	-18	2%	0	-4.4
O=C(Cc1cccs1)NCCc1ccc(Cl)cc1	nt	nt	nt	-9	0.1
CC(=O)Nc1ccc(S(=O)(=O)NC2=C(N3CCN(Cc4ccccc4)CC3)C(=O)c3ccccc3C2=O)cc1	-22	1	nt	1	4.9
CC(=O)NCC(=O)OCC(=O)N1c2ccccc2Sc2ccccc21	1	nt	6%	-1	3.5
CCN(C(=O)COC(=O)c1cc(-c2ccccc2)nn1-c1ccccc1)C1CCS(=O)(=O)C1 (stereo unspecified)	1	nt	-3%	-2	-1.3
CCOCC(O)CNc1ccccc1 (stereo unspecified)	2	-42	7%	0	-1.4
c1ccc2c(N3CCNCC3)nsc2c1	-7	nt	-2%	-2	-2.6
COc1ccc(NC(=O)c2cc3c(s2)CCC3)cc1S(=O)(=O)N1CCOCC1	-7	-5	-12%	?	-6.4
